MITF inh: MITF inhibition. 37,000 compounds, 0.28% hits. AID 2240. TRPM1 promoter luciferase, luminescence, 24 h. inhibition, % (no concentration beside the values);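 active = most replicates at 85% or more, or half of them and the mean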;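 also: human melanocyte line stably carrying TRPM1 promoter luciferase reporter; 0% = vehicle wells and 100% = a positive control; the first replicate is given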
Active calls of the source: *. Some of the compounds tested. The share of hits here may be higher or lower than overall.

Screening COc1ccccc1NC(=O)CSc1nc2ccc(NC(=O)c3ccccc3OC)cc2s1 returned MITF inh -7.
O=C(Nc1cccc(NS(=O)(=O)c2cccc([N+](=O)[O-])c2)c1)c1cccs1 was read as MITF inh 0.
N#CCCN(CCC#N)C(=O)C1c2ccccc2Oc2ccccc21 was read as MITF inh -26.
Cc1cc(C)c(S(=O)(=O)NCC(=O)O)c(C)c1 was read as MITF inh -5.
Screening O=C(CN1C(=O)c2ccccc2S1(=O)=O)Nc1ccc(N2CCOCC2)cc1 returned MITF inh 4.
`COC(=O)c1ccc(NC(=O)CCC(=O)c2ccc(Br)cc2)cc1` gave MITF inh 1.
COc1ccc(NC(=S)NC(=O)C(C)Oc2ccc(Cl)cc2Cl)c([N+](=O)[O-])c1 (stereo not given) was read as MITF inh 6.
For Cc1cc(OCC(=O)Nc2ccccc2[N+](=O)[O-])ccc1Cl the results were MITF inh -48.
Screening CCOc1ccc2nc(NCCCO)[nH]c2c1 returned MITF inh -2.
Screening COC(=O)c1ccccc1NC(=O)Cc1coc2c(C)c(C)ccc12 returned MITF inh -1.
Cc1ccc(S(=O)(=O)N(CC(N)=O)c2ccc(Cl)c(Cl)c2)cc1 was read as MITF inh 19.
For CS(=O)(=O)N(CC(=O)Nc1ccccc1-c1ccccc1)c1ccc(Br)cc1 the results were MITF inh -18.

Brought forward from above: 3 compounds, followed by the next part.
Screening COC(=O)c1ccccc1NC(=O)Cc1coc2c(C)c(C)ccc12 returned MITF inh -1.
Cc1ccc(S(=O)(=O)N(CC(N)=O)c2ccc(Cl)c(Cl)c2)cc1 was read as MITF inh 19.
For CS(=O)(=O)N(CC(=O)Nc1ccccc1-c1ccccc1)c1ccc(Br)cc1 the results were MITF inh -18.
`CCn1cc(CNC(=O)c2cc(-c3cccnc3)nc3ccc(Br)cc23)c(C)n1` gave MITF inh -19.
CC(=O)Nc1ccc(NC(=O)CSc2nnc3c4ccccc4n(C)c3n2)cc1 was read as MITF inh -1.
`O=C(O)Cn1cc(C(=O)c2cccs2)c2ccccc21` gave MITF inh 13.
`CN(C)c1ccc(NC(=O)CN(C)S(=O)(=O)c2ccc(Br)cc2)cc1` gave MITF inh -9.
Screening CC(NS(=O)(=O)c1ccc(F)cc1)C(=O)Nc1cc(Cl)ccc1Oc1ccccc1 (stereo not given) returned MITF inh 5.
For COc1ccc(NC(=O)COc2ccc(Cl)cc2)cc1NC(=O)c1ccco1 the results were MITF inh -2.
Screening COC(=O)C1=C(C)Nc2ncnn2C1c1ccco1 (stereo not given) returned MITF inh -10.
`CS(=O)(=O)N(CC(=O)NC1CCCC1)c1ccc2c(c1)OCCO2` gave MITF inh -14.
For O=C(CCSc1nnnn1-c1ccccc1)Nc1ccc(Cl)cc1 the results were MITF inh 0.
`O=[N+]([O-])c1cc(C(F)(F)F)ccc1N(CCO)CCO` gave MITF inh -3.
Screening CN(C1CCCCC1)S(=O)(=O)c1ccc(NC(=O)C2CCCCC2C(=O)O)cc1 (stereo not given) returned MITF inh 0.
For Cc1sc(NC(=O)COc2ccc3c(C)cc(=O)oc3c2)c(C#N)c1C the results were MITF inh 1.
Screening CCc1c(C)sc(NC(=S)Nc2nc(C)cc(C)n2)c1C(=O)OC returned MITF inh -7.
For O=S(=O)(Nc1ncccn1)c1ccc(NC(=S)Nc2ccc(Oc3ccccc3)cc2)cc1 the results were MITF inh -8.
`CC(C(=O)N1CCN(C)CC1)N(c1ccc(Oc2ccccc2)cc1)S(C)(=O)=O` (stereo not given) gave MITF inh 15.
`NC(=O)c1cc(-c2ccccc2)sc1NC(=O)Cn1cnc2scc(-c3ccccc3)c2c1=O` gave MITF inh 25.
`Cc1ccc2c(C)c(C(=O)Nc3sc4c(c3C(=O)NCc3cccnc3)CCCC4)oc2c1` gave MITF inh -9.
Screening CCCn1cc(NC(=O)C2CC(c3ccccc3O)=NO2)cn1 (stereo not given) returned MITF inh -13.
`CCOC(=O)CSc1nnc2c(n1)[nH]c1ccccc12` gave MITF inh 2.
Screening CCn1cc(CNC(=S)Nc2cc(OC)ccc2OC)cn1 returned MITF inh 14.
CCn1c(SCC(=O)Nc2ccc([N+](=O)[O-])cc2)nnc1-c1ccccc1F was read as MITF inh 22.
Cc1ccccc1OCC(=O)Nc1cc2nn(-c3ccccc3)nc2cc1Cl was read as MITF inh 2.
Screening COc1ccc(NC(=O)c2ccc(OC(=O)CCN3C(=O)c4ccccc4C3=O)cc2)cc1 returned MITF inh -59.
For O=C(CSc1nc2ccccc2s1)Nc1cc(Cl)cc(Cl)c1 the results were MITF inh 31.
For CCS(=O)(=O)c1nc2ccccc2n1CC(=O)N1CCOCC1 the results were MITF inh -13.
CCn1c(NCc2ccccc2O)nc2ccccc21 was read as MITF inh -55.
O=C(CC1Nc2cccc3cccc(c23)NC1=O)Nc1ccc(F)cc1 (stereo not given) was read as MITF inh 44.
For Cc1ccc(NC(=O)CSC2CC(=O)N(c3ccccc3)C2=O)cc1C (stereo not given) the results were MITF inh -5.
Cc1ccc(-c2cn(S(=O)(=O)c3cccc4nsnc34)nc2N)cc1 was read as MITF inh 24.
`CCn1c(SCC(=O)Nc2c(C)cc(C)cc2C)nnc1-c1ccc(Br)cc1` gave MITF inh 4.
For Cc1cc(SCC(=O)Nc2ccc(SC(F)F)cc2)nc2ccccc12 the results were MITF inh -8.
Screening CCOc1ccc(NC(=O)C2CC(=O)n3cnnc3N2)cc1 (stereo not given) returned MITF inh -14.
For COc1ccc(NC(=O)Cc2nc(-c3ccc(OC)cc3)cs2)cc1 the results were MITF inh 8.
CCOc1ccc(NC(=O)Cn2c(-c3ccc(OC)cc3)nc3sc4c(c3c2=O)CCCC4)cc1 was read as MITF inh -14.
For Cc1cc(C)cc(OCC(=O)Nc2cc(-c3nc4cc(Cl)ccc4o3)ccc2C)c1 the results were MITF inh 11.
For O=C(CN1CCN(S(=O)(=O)c2ccc3ccccc3c2)CC1)Nc1cc(Cl)ccc1Cl the results were MITF inh -13.
For COc1ccc([N+](=O)[O-])cc1N(CC(=O)Nc1ccccc1Br)S(C)(=O)=O the results were MITF inh -7.
Screening Cc1cc(N(CC(=O)NC2CC2)S(C)(=O)=O)ccc1Br returned MITF inh -6.
Screening O=C(c1ccccc1)c1cc(Cl)ccc1NS(=O)(=O)c1ccccc1[N+](=O)[O-] returned MITF inh 27.
`CCOc1ccccc1CNc1nc2nc(C)c(Cl)c(C)n2n1` gave MITF inh -4.
Screening CS(=O)(=O)N(CC(=O)Nc1cc(C(F)(F)F)ccc1Cl)c1cccc(F)c1 returned MITF inh -1.
For Cn1c2ccccc2c2nnc(Sc3ccc4nsnc4c3[N+](=O)[O-])nc21 the results were MITF inh 19.
O=C(O)c1ccc(S(=O)(=O)Nc2ccc(O)c(Sc3nc4ccccc4s3)c2)cc1 was read as MITF inh 2.
`Cc1cccc(N2C(=O)CC(SCC(=O)Nc3ccccc3)C2=O)c1` (stereo not given) gave MITF inh -12.
COc1cccc2cc(C(=O)C3C(=O)C(=O)N(c4cc(C)on4)C3c3ccccc3)oc12 (stereo not given) was read as MITF inh 56.
For COC(=O)CSc1nc(NC(C)C)nc(N2CCOCC2)n1 the results were MITF inh -3.
Screening Cc1ccc(Cn2nc(C)c(NC(=O)c3nc4ncccn4n3)c2C)cc1 returned MITF inh -15.
`O=C(COc1ccccc1)NC(=S)Nc1cc(-c2nc3ccccc3o2)ccc1Cl` gave MITF inh -11.
For O=C(CCCn1cc([N+](=O)[O-])cn1)Nc1cc(F)ccc1F the results were MITF inh -3.
O=C(COc1ccccc1Cl)Nc1ccccc1C(=O)Nc1ccccc1 was read as MITF inh -14.
Screening Cn1c(SCc2ccccc2C#N)nnc1-c1ccncc1 returned MITF inh -1.
For CC(=O)c1cccc(NC(=S)NCc2ccco2)c1 the results were MITF inh -37.
For Cc1ccccc1-c1nc(SCC(=O)Nc2ccc(F)c(Cl)c2)n[nH]1 the results were MITF inh 3.
Screening CS(=O)(=O)N(CC(=O)Nc1ccc2c(c1)OCCO2)c1cc(Cl)c(Cl)cc1Cl returned MITF inh -18.
Screening CCCCN1C(=O)C(O)(CC(=O)c2ccco2)c2cc(Br)ccc21 (stereo not given) returned MITF inh 10.
Screening CCCc1c(C)nc2ccc(Br)cc2c1SCCC(=O)O returned MITF inh -12.
Screening CCc1ccc(NC(=O)Cn2c(-c3nonc3N)nc3ccccc32)cc1 returned MITF inh 16.
`Cc1nc2sc3c(c2c2nnc(SCC(=O)Nc4ccc(Br)cc4)n12)CCCC3` gave MITF inh 0.
For O=C(CSc1nc2ccccc2o1)N1N=CCC1c1ccccc1 (stereo not given) the results were MITF inh -41.
For COc1ccc(N(C(=O)c2ccncc2)S(=O)(=O)c2cccc([N+](=O)[O-])c2)cc1 the results were MITF inh 5.
Screening CCOc1ccc(NC(=O)C(C)Sc2nc3ccc(F)cc3[nH]2)cc1 (stereo not given) returned MITF inh -14.
`COc1ccc(OC)c(N(CC(=O)N2CCC(C)CC2)S(C)(=O)=O)c1` gave MITF inh 1.
`Cc1cccc(NC(=O)CSc2nc3sc(C)c(C)c3c(=O)n2C)c1C` gave MITF inh 51.
For CNC(=O)CN(c1ccc2c(c1)OCCO2)S(C)(=O)=O the results were MITF inh 1.
`Cc1ccccc1-c1cc(C(=O)NCCCn2cc(Br)cn2)c2ccccc2n1` gave MITF inh 23.
For Cc1ccc(S(=O)(=O)N2CCN(c3nc4ccccc4nc3-n3nc(C)cc3C)CC2)cc1 the results were MITF inh 21.
Screening COc1ccc(NC(=S)N2CCNC(=O)C2CC(=O)Nc2ccc(C)cc2)cc1 (stereo not given) returned MITF inh 8.
NC(=O)c1c(NC(=O)COc2ccc(Cl)cc2Cl)sc2c1CCCC2 was read as MITF inh -25.
COc1cc(Cl)c(C)cc1NC(=O)CC1Sc2ccccc2NC1=O (stereo not given) was read as MITF inh 36.
For COc1ccccc1NC(=O)CN(c1ccc(Br)c(C)c1)S(C)(=O)=O the results were MITF inh -1.
Screening Nc1cc(=O)[nH]c(SCC(=O)Nc2ccc(F)cc2)n1 returned MITF inh 1.
Screening COc1ccc(CCNS(=O)(=O)c2cc(C)ccc2OC)cc1 returned MITF inh -1.
For NS(=O)(=O)c1ccc(CNC(=O)c2cc(-c3ccccn3)nc3ccc(Br)cc23)cc1 the results were MITF inh 13.
COC(=O)c1ccc(Cl)c(NC(=O)COc2ccc(OC)cc2)c1 was read as MITF inh -17.
`OCCCn1c(-c2ccccc2)cn2c3ccccc3nc12` gave MITF inh 98*.
`Cc1ccc(C)c(NC(=O)CN(c2ccc(Oc3ccccc3)cc2)S(C)(=O)=O)c1` gave MITF inh 9.
`COc1cc2c(cc1NC(=O)CCCN1C(=O)CCC1=O)oc1ccccc12` gave MITF inh -55.
COc1cccc(NC(=O)CSc2nnc(-c3ccccc3O)n2-c2ccccc2)c1 was read as MITF inh 9.
`COC(=O)c1cn(CC(=O)Nc2ccccc2C(F)(F)F)c2ccccc12` gave MITF inh -4.
For O=C(CSC1CC(=O)N(c2ccccc2)C1=O)Nc1cccc(Br)c1 (stereo not given) the results were MITF inh -13.
Screening O=C(CSc1nnc(-c2ccccc2)o1)Nc1cccc(Br)c1 returned MITF inh -68.
Screening Cn1c(SCC(=O)Nc2ccccc2)nnc1-c1ccccc1F returned MITF inh -18.
Screening Cc1cc(Cl)ccc1NC(=O)Cn1cnc2sc(C)c(-c3ccc(F)cc3)c2c1=O returned MITF inh 21.
Screening Cc1cc2nn(-c3ccc(C(C)C)cc3)nc2cc1NC(=O)COc1ccccc1[N+](=O)[O-] returned MITF inh 2.
Screening COc1ccc(S(=O)(=O)N(C)CC(=O)Nc2ccccc2OC)cc1C returned MITF inh 4.
For Cn1c(Cc2ccccc2)nnc1Sc1ccc([N+](=O)[O-])cc1C(=O)N1CCOCC1 the results were MITF inh -17.
CN1CCN(C(=O)CN(c2cccc(Cl)c2)S(=O)(=O)c2ccc(Cl)cc2)CC1 was read as MITF inh -17.
Cc1cccc(-c2nnc(SCC(=O)Nc3ccc(Br)cc3F)o2)c1 was read as MITF inh -58.
For COc1ccc(C(Nc2ccccn2)c2cc(Cl)c3cccnc3c2O)cc1[N+](=O)[O-] (stereo not given) the results were MITF inh 45.

By substructure, those above with fluorine
Screening CC(NS(=O)(=O)c1ccc(F)cc1)C(=O)Nc1cc(Cl)ccc1Oc1ccccc1 (stereo not given) returned MITF inh 5.
`O=[N+]([O-])c1cc(C(F)(F)F)ccc1N(CCO)CCO` gave MITF inh -3.
CCn1c(SCC(=O)Nc2ccc([N+](=O)[O-])cc2)nnc1-c1ccccc1F was read as MITF inh 22.
O=C(CC1Nc2cccc3cccc(c23)NC1=O)Nc1ccc(F)cc1 (stereo not given) was read as MITF inh 44.
For Cc1cc(SCC(=O)Nc2ccc(SC(F)F)cc2)nc2ccccc12 the results were MITF inh -8.
Screening CS(=O)(=O)N(CC(=O)Nc1cc(C(F)(F)F)ccc1Cl)c1cccc(F)c1 returned MITF inh -1.
For O=C(CCCn1cc([N+](=O)[O-])cn1)Nc1cc(F)ccc1F the results were MITF inh -3.
For Cc1ccccc1-c1nc(SCC(=O)Nc2ccc(F)c(Cl)c2)n[nH]1 the results were MITF inh 3.
Screening CCOc1ccc(NC(=O)C(C)Sc2nc3ccc(F)cc3[nH]2)cc1 (stereo not given) returned MITF inh -14.
Screening Nc1cc(=O)[nH]c(SCC(=O)Nc2ccc(F)cc2)n1 returned MITF inh 1.
`COC(=O)c1cn(CC(=O)Nc2ccccc2C(F)(F)F)c2ccccc12` gave MITF inh -4.
Screening Cn1c(SCC(=O)Nc2ccccc2)nnc1-c1ccccc1F returned MITF inh -18.
Screening Cc1cc(Cl)ccc1NC(=O)Cn1cnc2sc(C)c(-c3ccc(F)cc3)c2c1=O returned MITF inh 21.
Cc1cccc(-c2nnc(SCC(=O)Nc3ccc(Br)cc3F)o2)c1 was read as MITF inh -58.

High-throughput results deposited in PubChem by Broad Institute.
